Screening data deposited in PubChem BioAssay by several laboratories.
Yeast UUG start = yeast start codon fidelity modulation; S. cerevisiae UUG-firefly luciferase reporter, luminescence/redox ratio; activity score, % at 18.7 µM; hit rate 0.13% among 350,000; AID 602363;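 active means replicate mean at a twofold rise or more, about +100% in these data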;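 further: firefly luciferase made from a UUG start codon reports start codon fidelity; reporter light over untreated wells divided by growth signal over untreated wells; some hits fall short of that in this replicate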
CSC inhib = cancer stem cell inhibition; hit rate 1.1% among 300,000; cancer stem cell-like cells viability, luminescence; inhibition, % at 7.5 µM;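 active means mean at 75% or more and at least half the replicates too; inconclusive means mean and replicates disagree; tested in HMLE shEcad cells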;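 further: 0% = median of negative and 100% = median of positive control wells; the first replicate is given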
PABP FP inh = PABP-poly(A) binding inhibition | PABP-poly(A) RNA binding, fluorescence polarization | inhibition, % at 35 µM | hit rate 1% among 290,000;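 active means 50% or more with normal probe brightness, or confirmed in later tests; inconclusive means above 50% with abnormal brightness, or retests that disagree; inactive means below 50% or failed in later tests; about a fifth of its hits are not listed in these tables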;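 further: calls also rest on retests at 20 µM and on dose response follow-up; controls were probe without protein and protein plus probe with vehicle; some compounds called inactive have numbers as strong as hits; many hits fall short of the cut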
Target sequence (P11940 whole entry, looked up): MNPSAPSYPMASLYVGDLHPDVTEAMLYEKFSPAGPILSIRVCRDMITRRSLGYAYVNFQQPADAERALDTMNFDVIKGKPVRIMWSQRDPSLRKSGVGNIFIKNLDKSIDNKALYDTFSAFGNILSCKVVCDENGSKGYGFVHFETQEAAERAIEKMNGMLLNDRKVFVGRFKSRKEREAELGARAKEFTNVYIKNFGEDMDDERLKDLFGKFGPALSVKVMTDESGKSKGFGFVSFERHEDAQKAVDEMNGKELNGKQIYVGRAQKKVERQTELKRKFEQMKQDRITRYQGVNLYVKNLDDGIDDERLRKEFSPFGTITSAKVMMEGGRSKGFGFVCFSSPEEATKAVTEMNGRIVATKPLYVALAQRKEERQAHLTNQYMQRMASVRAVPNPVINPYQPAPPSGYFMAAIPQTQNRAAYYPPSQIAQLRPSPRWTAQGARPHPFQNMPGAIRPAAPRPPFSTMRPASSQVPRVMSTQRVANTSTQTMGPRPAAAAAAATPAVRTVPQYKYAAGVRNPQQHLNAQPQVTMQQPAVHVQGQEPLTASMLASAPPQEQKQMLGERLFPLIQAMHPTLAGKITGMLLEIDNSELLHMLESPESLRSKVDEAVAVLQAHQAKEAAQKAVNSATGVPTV
Rce1 inhib = inhibitors of yeast Ras-converting enzyme; Q03530; hit rate 0.27% among 290,000; calls only; yeast membranes, quenched prenylated peptide cleavage fluorescence;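 active means fall in fluorescence gain of 50% or more versus controls, with final raw signal at or below 3038400; inconclusive means same 50% fall but final raw signal above 3038400; inactive means fall in fluorescence gain under 50%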;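 further: plate controls were neutral control wells for no effect and wells lacking membranes for full effect; tested at 10 µM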
MT1-MMP act inh = MT1-MMP (human) activation inhibition; P50281; HT1080 RFP-PRO-GFP cells, GFP/RFP ratio fluorescence, overnight; percent of plate control window, DMSO zero; GFP/RFP ratio change, % at 20 µM; hit rate 0.061% among 360,000; AID 651647;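 active means GFP/RFP ratio change of at least 30% with cell ATP level not reduced by more than half and red fluorescence within 50% of control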; further: strong numbers were not always called active
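system = RFP-PRO-GFP reporter HT1080 cells | dosing = 20 µM single dose, 1% DMSO | timing = overnight cell settling, then overnight compound exposure, 37 °C, 5% CO2 | read-out basis = GFP/RFP fluorescence ratio | controls = DMSO and RFP-L50D-GFP cell wells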
HIV Env fusion = HIV envelope-mediated fusion inhibition; hit rate 1.1% among 360,000; HeLa-JRFL Env/CEM21 cell fusion, luciferase; inhibition, % at 12.3 µM;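 active means mean replicate inhibition score of at least 50 and every replicate individually at or above 50; inconclusive means only one of the two criteria met; inactive means mean below 50 and not all replicates reaching 50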;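 further: 0% = plate neutral controls and 100% = maraviroc near 300 nM; one replicate is shown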
eIF4H FP inh = inhibitors of RNA binding by human eIF4H. Q15056. eIF4H fluorescence polarization binding assay. inhibition, % at 35 µM. hit rate 0.94% among 290,000;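 active means 50% or more with normal probe brightness, or confirmed in later tests; inconclusive means above 50% with abnormal brightness, or retests that disagree; inactive means below 50% or failed in later tests; about a fifth of its hits are not listed in these tables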;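 further: calls also rest on retests at 20 µM and on dose response follow-up; 0% = protein and probe with vehicle and 100% = probe without protein; strong numbers were not always called active; many hits fall short of the cut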
eIF4H FP inh retest = also measured in eIF4H FP inh; calls as there; inhibition, %; compound at 20 µM; confirmation average;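 mean of two retest wells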
PABP FP inh retest = second read-out of PABP FP inh, no call of its own (marks repeat the call); inhibition, %; compound at 20 µM; confirmation repeats;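 mean of two retest wells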
MT1-MMP act inh RFP = recorded beside MT1-MMP act inh, whose call it bears; RFP signal change, %; measured here: RFP expression control read;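 0 = vehicle wells; hits needed this value within 50% of zero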
Numbers without * were called inactive; i = inactive; u = inconclusive; x = no result given; & = joins results of further samples; [ ] = dose if it differs, or a comment. Not all compounds are listed, so the mix of outcomes need not match the whole.

SMILES	Yeast UUG start	CSC inhib	PABP FP inh	Rce1 inhib	MT1-MMP act inh	MT1-MMP act inh RFP	HIV Env fusion	eIF4H FP inh	others
CCOC(=O)c1c(C)[nH]c(C)c1S(=O)(=O)NCc1ccccc1C	21	-1	1	i	2	3	0	7
CSc1nc2ccc(NC(=O)c3ccc(Cl)s3)cc2s1	-4	1	0	x	5	1	-186	2
CN1CCN(C(=O)C2=C[C@@H](c3ccccc3)C[C@@H](OCc3ccc(CO)cc3)O2)CC1	21&-3	-12	2	i	-1	5	22[16.7 µM]	-1
Cc1cc(OC(C)C(=O)NCc2ccncc2)c2c(C)cc(=O)oc2c1 (stereo not drawn)	11	-14	8	i	6	6	3	-4
COc1ccc(CCn2c(-c3ccc(F)cc3)nc3c(c(=O)c4ccccc4n3C)c2=O)cc1OC	-17	-13	-8	i	0	-2	15	-10
CCCCCCN1C[C@H](n2cc(-c3ccc(F)cc3)nn2)[C@@H](O)C[C@@H]1c1ccc(Cl)cc1	-10	x	x	x	-6	-8	-2	x
Cc1cc(OCc2nn[nH]n2)c2c(C)c(CC(=O)O)c(=O)oc2c1	-23	2	20	i	-1	4	-12	-2
COc1cccc(-c2ccc3c(c2)N(Cc2ccc(F)cc2)C(=O)C(C)S3)c1 (stereo not drawn)	-4	x	x	x	-2	-4	-37	x
O=c1c2cn[nH]c2[nH]c(=S)n1-c1ccccc1F	-9	-14	8	i	5	-2	-98	-2
COc1ccccc1CNC(=O)CSc1nn2c(=O)c(C(C)(C)C)nnc2s1	x	-6	2	x	-6	-6	11	1
COc1ccc(NC(=S)N(Cc2ccc(N(C)C)cc2)Cc2ccco2)cc1	-27	-6	66	i	-9	-5	x	-5	eIF4H FP inh retest=30;PABP FP inh retest=40
COc1ccc2sc(-c3ccc(N(C)C)cc3)c(C#Cc3cncn3C)c2c1	-19	104*	x	x	-11	-8	-45	x
O=C1C2CCCN2C(=O)N1CCCCN1CCN(CCO)CC1 (stereo not drawn)	-12	-10	1	i	4	6	-2	-2
CCOC(=O)CSC(C)C(=O)Nc1nnc(C(C)C)s1 (stereo not drawn)	4	-6	-12	i	2	4	-12	1
CC(C)(C)C(=O)CN1C2=NCCCN2c2ccccc21	4	-4	-3	i	0	0	-5	-5
Cc1cc(/C=N/n2c(COc3ccccc3C)nc3ccccc3c2=O)c(O)c([N+](=O)[O-])c1	x	62	9	i	1	-8	8	16
CCc1ccccc1-n1c(SCC(=O)N2CCCC2)nc2[nH]ncc2c1=O	x	-9	-11	i	3	3	5	-13
COc1ccc(-c2nc(NC(=O)c3ccco3)sc2C)cc1	-15	x	x	x	-2	-3	-20	x
CC(C)(C)S(=O)(=O)c1cnc(-c2ccc(Cl)cc2)nc1N	x	-6	5	i	7	-10	-17	-2
COc1ccccc1N1CCN(C(=O)CCc2nnc3ccc(N4CCC(C)CC4)nn23)CC1	-16	-14	-3	i	7	1	21	-3

Arranged by length of the SMILES (largest number first): part of the list above
SMILES	Yeast UUG start	CSC inhib	PABP FP inh	Rce1 inhib	MT1-MMP act inh	MT1-MMP act inh RFP	HIV Env fusion	eIF4H FP inh	others
COc1ccc(NC(=S)N(Cc2ccc(N(C)C)cc2)Cc2ccco2)cc1	-27	-6	66	i	-9	-5	x	-5	eIF4H FP inh retest=30;PABP FP inh retest=40
CC(C)(C)S(=O)(=O)c1cnc(-c2ccc(Cl)cc2)nc1N	x	-6	5	i	7	-10	-17	-2
CCOC(=O)CSC(C)C(=O)Nc1nnc(C(C)C)s1 (stereo not drawn)	4	-6	-12	i	2	4	-12	1

Other structures.
SMILES	Yeast UUG start	CSC inhib	PABP FP inh	Rce1 inhib	MT1-MMP act inh	MT1-MMP act inh RFP	HIV Env fusion	eIF4H FP inh	others
N#Cc1ccc(S(=O)(=O)N2CCc3[nH]c4ccc(F)cc4c3C2)cc1	-12	5	-8	i	6	-2	16	-8
CC(C)C(=O)Nc1ccc(NC(=S)NC(=O)c2cc3ccccc3o2)cc1	x	2	4	i	2	3	-12	-6
O=C(NC1CCCCCCC1)c1c(O)c2ccccc2[nH]c1=O	-19	-18	11	i	7	2	x	1
Cc1ccc(NC(=O)N2CCOCC2)c(C)c1	-46	-18	-9	i	0	1	6	-4
O=C(CNC1CCCCC1)Nc1cc(S(=O)(=O)N2CCOCC2)ccc1Cl	-6	-5	-11	i	2	4	-6	2
Nc1cc(=O)[nH]c(SCC(=O)Nc2cc(S(=O)(=O)N3CCOCC3)ccc2Cl)n1	x	7	-9	i	-2	3	-9	1
Cc1ccc(SCC(=O)NCCSC(C)(C)C)cc1	-8	-13	1	i	-2	-2	x	11
COc1cccc(OC)c1NC(=O)CN1CCN(C)CC1	-5	11	0	i	-1	-1	-2	-7
COc1ccc(OC)c(-c2cc(C(=O)NCc3ccco3)no2)c1	-19	x	8	i	-4	-1	x	3
O=C(COC(=O)c1c(F)cccc1Cl)NC(=O)Nc1ccc2c(c1)OCCO2	-2	-8	x	x	-2	2	-55	x
Nc1nc2ccc(N3CCOCC3)cc2s1	-62	-3	-2	x	-7	-3	x	3
O=C(Nc1cccc(S(=O)(=O)N2CCCC2)c1)c1cccc(S(=O)(=O)N2CCOCC2)c1	-4	x	x	x	9	1	4	x
Cc1cc(C)c2c(=O)n(CC(=O)Nc3ccc(Cl)cc3)sc2n1	x	u	3	i	4	-4	-3	-4
CC(=O)C1=C(O)C(=O)N(Cc2cccnc2)C1c1ccccc1 (stereo not drawn)	-7	-15	-10	i	2	4	x	-4
CN(C)CCn1c2c(c(SCC(=O)Nc3ccccc3)nc1=O)CCCC2	-10	-7	x	i	1	1	14	x
O=C(CCc1ccccc1)NNC(=S)Nc1ccc(F)cc1	-10	-5	-13	i	2	4	0	0
Cc1cc(OCC(=O)NC2CC2)c2c(C)cc(=O)oc2c1	-17	-3	-13	i	-1	1	x	5
O=C(Nc1ccc(N2CCOCC2)cc1)c1ccc([N+](=O)[O-])cc1	x	-8	2	i	3	-3	0	4
Cc1csc(NC(=O)CSc2nnc(NC(=O)C3CC(=O)N(c4ccccc4)C3)s2)n1 (stereo not drawn)	-32	16	-12	i	-3	3	-6	8
CCN(CC)C(=O)Cn1cc(S(=O)(=O)CC(=O)Nc2cc(OC)ccc2OC)c2ccccc21	18	-2	6	i	-1	2	-1	-16
COc1ccc(NC(=O)c2sc3nc(N4CCOCC4)c4c(c3c2N)CCCC4)cc1	8	x	x	x	-2	-2	-18	x
COc1ccc(Nc2nc(N)nc(CN3CCN(c4ccccn4)CC3)n2)cc1	-29	-1	-9	i	2	2	x	3
CC(=O)Nc1ccc(N2C(=O)CC(N3CCSCC3)C2=O)cc1 (stereo not drawn)	x	5	-6	i	-1	0	6	11
CC(C)CC(=O)NC(=S)Nc1ccc(NC(=O)c2cccs2)cc1	-10	3	-10	i	11	0	-14	0
Cc1ccsc1C1CC(=O)OC2=C1C(=O)CC(C)(C)C2 (stereo not drawn)	x	1	-1	i	x	x	x	-4
Cc1c(C(=O)N2CCCC2)oc2c1-c1nn(CC(=O)NCCCN3CCCCC3C)cc1CC2 (stereo not drawn)	0	3	x	i	-9	2	3	x
O=S(=O)(ON(c1ccccc1)S(=O)(=O)c1ccccc1)c1ccccc1	19	10	-7	i	-5	-4	13	1
CC(C)NC(=O)CCNC(=O)c1ccc(F)cc1	-11	-12	x	x	1	6	x	x
O=C(NCC1CCCCC1)c1ccc(=O)[nH]c1	53	-15	-1	i	0	1	7	16
CN(C(=O)c1cccc(NC(=O)Cc2cccc(NC(=O)C3CCN(C(=O)C4CCCCC4)CC3)c2)c1)C1CC1	14	x	x	x	5	4	-24	x
CCOc1cc(C(=O)N/N=C/c2ccsc2)cc(OCC)c1OCC	x	19	-12	i	-2	-3	-19	-7
O=C(NCC1CCCO1)c1cccs1 (stereo not drawn)	-8	6	0	i	-3	-1	x	-7
COCc1cc(=O)[nH]c(-c2ccccc2OC(F)(F)F)n1	-3	1	14	i	3	4	15	-9
CCc1ccc(N(CC(=O)NC2CCCC2)C(=O)CCC(=O)Nc2ccccn2)cc1	-10	-12	-2	i	1	-4	15	5
Cc1ccc(OCC(=O)Nc2ccc(N3CCN(S(C)(=O)=O)CC3)cc2)cc1	x	-8	7	i	-4	-2	-2	-4
CCCn1c(O)c(N=NC(=O)c2cccnc2)c2cc(Br)ccc21	-16	27	8	i	-1	0	12	-5
COc1ccc(S(=O)(=O)N2CC=C(c3ccccc3)CC2)cc1OC	-1	x	x	x	-2	-2	12	x
COc1ccc(CCNC(=O)C2(c3ccccc3)CC2)cc1	-4	5	-5	i	3	5	-36	-17
Cc1cc(C)c(NS(=O)(=O)c2ccc(NC(=O)/C=C/C(=O)O)cc2)c(C)c1	x	4	-8	i	x	x	-6	2
CCCCN1C(=N)N([C@@H](CCC)CN2CCC[C@H]2CN2C(N)=NC[C@H]2C(C)C)C[C@H]1[C@H](C)CC	-4	x	x	x	3	3	6	x
CCCCOc1ccc(C(=O)N/C(=C\c2cccc([N+](=O)[O-])c2)C(=O)OC(C)C)cc1	-14	2	2	i	3	-2	x	-5
O=C(Nc1ccc(NC(=O)c2ccccc2F)cc1)c1cccs1	-3	6	x	x	5	8	-57	x
CCc1nc2c(OCCc3cccc(OC)c3)cccn2c1N(C=O)Cc1ccc(OC)cc1	0	x	x	x	1	-6	15	x
CSc1nnc2n(-c3ccc(C)cc3)c(=O)c3c4c(sc3n12)COC(C(C)C)C4 (stereo not drawn)	4	-9	4	i	-5	2	8	2
Cc1cc(NC(=O)Cn2nc([N+](=O)[O-])c(Br)c2C)no1	x	-9	-6	i	3	4	-29	-4
COc1ccc(CNC(=O)CC2(CC(=O)O)CCCCC2)cc1	-17	x	4	i	-1	1	-33	-10
Cc1ccccc1NC(=S)N(Cc1ccco1)C(C)c1cccs1 (stereo not drawn)	-30	3	10	i	-2	0	u	9
COc1ccccc1C1=CC(=O)C[C@H](c2ccc(F)cc2)C1	-14	-10	x	x	1	0	-29	x
COc1ccc(Nc2ncnc3sc(-c4ccccc4)cc23)cc1OC	-9	-19	0	i	5	-6	-12	-9
Cc1cccc2sc(NNC(=O)c3cc(=O)c4ccccc4o3)nc12	-43	42	-2	i	-6	5	-9	1

Carrying on:
SMILES	Yeast UUG start	CSC inhib	PABP FP inh	Rce1 inhib	MT1-MMP act inh	MT1-MMP act inh RFP	HIV Env fusion	eIF4H FP inh	others
Cc1sc2ncn(CC(=O)NCCCC(=O)N3CCC(C)CC3)c(=O)c2c1C	3	-15	6	i	-1	0	-3	-1
C[C@H]1CN([C@@H](C)CO)C(=O)CCCn2nncc2CO[C@H]1CN(C)C(=O)Nc1cccc(Oc2ccccn2)c1	-8&-9	x	x	x	2	6	30	x
CCNC(=O)C1=C(O)c2sccc2N(C)S1(=O)=O	x	-11	26	i	-3	2	-2	2
CC(C)(Oc1ccc(Cl)cc1)C(=O)OCn1nnc2ccccc2c1=O	17	-10	21	i	2	5	x	-11
Cc1cc(NC(=S)Nc2cccc3ccccc23)n[nH]1	x	-13	-3	i	0	-8	7	-2
CC1(C)CC(=O)/C(=C(\O)CCCN2C(=O)c3ccccc3C2=O)C(=NCCO)C1	x	-4	-4	x	3	5	-8	-5
Oc1ccc2cc(Br)ccc2c1CN1CCCC1	-1	5	-7	i	-40	10	8	1
CC(=O)c1c(N2CCCCC2)nc(=S)n(-c2ccccc2)c1C	-1	0	11	i	-3	-2	x	2
O=C(CC12CC3CC(C1)CC(CC(=O)N1CCCC1)(C3)C2)N1CCCC1	6	0	-9	i	-2	-4	2	-1
